NS1 function inh = blocks influenza NS1 protein function. Potency, µM (doses to about 46.1 µM), for the others: at the top dose activity, positive = more growth. 270,000 tested, 0.4% active. S. cerevisiae slowed by influenza A NS1, growth recovery by OD600; further: actives are rising curves; nearly all actives have a fitted effect of over 50% in size
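Recovery from NS1-induced slow growth read by OD600 in budding yeast switched to galactose assay medium (pH 6.0, -URA) at 1:100 dilution. Compound 23 nl per well; the matching strain lacking NS1 serves as control.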
Lassa entry inh = Lassa virus entry inhibition; 300,000 tested, 1.2% active; Lassa virus pseudotype entry inhibition, cell reporter; control for the full effect not named in the record; AID 540256; Potency, µM (series often up to 37.9 µM), for the others: at the highest dose activity change, negative = inhibition, actives largely listed as inhibitors; active means well fitted inhibition curve with a large enough effect; inconclusive means small, poorly fitted or top-dose-only effect, or effect the other way; inactive means flat fitted curve, though single readings scatter; tested in HEK293 cells; further: on the % scale 0 is the no-effect control and ±100 the full control effect; nearly all actives have a fitted effect of over 50% in size; luciferase read-out
StopGo reporter = FMDV 2A StopGo reporter, luciferase signal | Potency, µM (doses to about 57.9 µM), for the others: at the highest dose signal change, negative = less light | 410,000 tested, 1.2% active | human cells with a luciferase reporter of 2A StopGo recoding; control for the full effect not named in the record; active = well fitted falling curve with a large enough effect; inconclusive = small, poorly fitted or top-dose-only effect; inactive = no such curve, though single readings can be large or run the other way; tested in HEK293T cells; further: on the % scale 0 is the no-effect control and ±100 the full control effect; nearly all actives have a fitted effect of over 45% in size; luciferase light after 4 h
RE007 growth inh = less growth of the S. pombe RE007 Vpr strain. 360,000 tested, 0.21% active. Potency, µM (series often up to 92.2 µM), for the others: at the top dose activity change, negative = less growth. S. pombe RE007 Vpr strain, BacTiter-Glo ATP luminescence, 24 h; control for the full effect not named in the record; active = well fitted falling curve with a large enough effect; inconclusive = small, poorly fitted or top-dose-only effect; inactive = no such curve, though single readings can be large or run the other way;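 further: on the % scale 0 is the no-effect control and ±100 the full control effect; nearly all actives have a fitted effect of over 50% in size; the assay follows cell death caused by Vpr and the record does not say whether a fall means rescue or toxicity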
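Fission yeast strain RE007, carrying one chromosomally integrated HIV-1 vpr copy, was seeded at OD 0.01 in PMG+AL medium with 23 nL pinned compound. After 24 h at 30 °C and 99% humidity, viability was read by BacTiter-Glo luminescence.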
Cruzain inh Det = blocks cruzain activity in presence of Triton detergent | Potency, µM, without a hit: max response, negative = inhibition, most hits filed as inhibitors | 200,000 tested, 0.43% active | purified cruzain, Z-FR-AMC fluorescence, 0.01% Triton; active means well fitted curve in the direction sought with a large enough effect; inconclusive means small, poorly fitted or top-dose-only effect, or another doubt; inactive means no such curve, though single readings can be large; an effect the other way counts as inactive or inconclusive;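 further: plate controls were neutral wells for no effect and buffer without enzyme for full effect; nearly all actives have a fitted effect of over 40% in size; top concentration of the series not given in the record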
Target sequence (P25779 123-467 limits assumed): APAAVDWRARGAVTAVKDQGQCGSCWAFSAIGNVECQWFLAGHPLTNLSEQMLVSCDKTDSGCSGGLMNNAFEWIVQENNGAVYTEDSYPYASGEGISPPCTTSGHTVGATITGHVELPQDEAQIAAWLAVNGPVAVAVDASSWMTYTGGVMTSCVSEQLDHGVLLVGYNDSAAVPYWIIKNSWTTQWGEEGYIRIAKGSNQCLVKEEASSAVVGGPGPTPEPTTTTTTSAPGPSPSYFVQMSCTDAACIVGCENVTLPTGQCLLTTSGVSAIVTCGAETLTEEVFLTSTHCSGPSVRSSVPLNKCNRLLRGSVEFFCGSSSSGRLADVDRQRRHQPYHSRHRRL
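Read-out: AMC fluorescence (360 nm excitation, 450 nm emission), four reads over 2 min, first-to-third difference used. Conditions: cruzain 1.5 nM, Z-FR-AMC 2 uM, pH 5.5 acetate, 5 mM DTT, 0.01% Triton X-100.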
SARS PLpro yeast = SARS-CoV PLP inhibition in yeast; S. cerevisiae expressing SARS-CoV PLpro, growth rescue; control for the full effect not named in the record; Potency, µM (highest dose often 32.9 µM), inactives show at the highest dose activity, positive = growth rescue; 330,000 tested, 0.19% active; further: 0% is about no effect; nearly all actives have a fitted effect of over 55% in size; growth read by luminescence after 48 h
Cruzain noTriton = blocks cruzain activity in detergent-free assay; purified cruzain, Z-FR-AMC fluorescence, no detergent; Potency, µM, for the others: max response, negative = inhibition, usual class: inhibitors; 200,000 tested, 2.3% active; active means well fitted curve in the direction sought with a large enough effect; inconclusive means small, poorly fitted or top-dose-only effect, or another doubt; inactive means no such curve, though single readings can be large; an effect the other way counts as inactive or inconclusive;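 further: plate controls were enzyme without inhibitor for no effect and buffer without enzyme for full effect; nearly all actives have a fitted effect of over 40% in size; top concentration of the series not given in the record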
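Purified cruzain at 1.5 nM, pre-incubated 15 min with compound at room temperature in 100 mM sodium acetate pH 5.5, 5 mM DTT, 0.00005% Triton X-100. Reaction started with 2 uM Z-FR-AMC; AMC fluorescence increase over 60 s gives rate.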
Marburg entry inh = Marburg virus entry inhibition. Marburg virus pseudotyped entry inhibition, cell reporter; control for the full effect not named in the record; about a third of the inactives were read at about 46 µM. AID 540276. Potency, µM (doses to about 37.8 µM), for the others: at the top dose activity change, negative = inhibition, most hits filed as inhibitors. 300,000 tested, 1.8% active; active = well fitted inhibition curve with a large enough effect; inconclusive = small, poorly fitted or top-dose-only effect, or effect the other way; inactive = flat fitted curve, though single readings scatter; tested in HEK293 cells; about a fifth of its hits are not listed in these tables; further: on the % scale 0 is the no-effect control and ±100 the full control effect; luciferase read-out
The depositor's hits bear a star; ? = inconclusive; / = not tested or not shown; [ ] = remark or other dose. Unless noted, the call rests on the fitted dose curve; in most records, active means well fitted rising curve with a large enough effect; inconclusive means small, poorly fitted or top-dose-only effect; inactive means no such curve, though single readings can be large or run the other way. Potency means the concentration at half of the fitted maximal effect. Random draw from the library. Share with any hit: about 4.6%.

1: Cc1ccc(NS(=O)(=O)c2cccc3nsnc23)cc1
2: COc1ccc(CCNS(=O)(=O)c2c(N)n(C)c(=O)n(C)c2=O)cc1OC
3: O=[N+]([O-])c1ccc(N2CCN(Cc3ccccc3)CC2)nc1
4: CCCCCCCCOC(=O)C1=C(C)Nc2nnnn2C1c1cccs1 (stereo not given)
5: CCc1ccc(NC(=O)c2cc(S(=O)(=O)N3CCc4ccccc43)cn2C)cc1
6: Nc1c(C(=O)Nc2cccc(F)c2)sc2nc(-c3cccs3)ccc12
7: NS(=O)(=O)c1ccc(NC(=S)Nc2ccc(OCc3ccccc3)cc2)cc1
8: COc1ccc(NC(=O)c2c(C)nn(Cc3ccccc3Cl)c2Cl)cc1Cl
9: Cc1ccc(NC(=O)NC2CCCCC2)c(C)c1
10: CCc1ccccc1NC(=O)Cc1ccc(-n2c(C)nc3cccnc32)cc1
Assay by compound	1	2	3	4	5	6	7	8	9	10
NS1 function inh	-3%	/	/	-67%	27%	/	/	0%	6%	/
Lassa entry inh	/	11%[46.1 µM]	-21%	?	/	12%[46.1 µM]	1%	-10%	?	1%[46.1 µM]
StopGo reporter	50%[activator]	-17%	?	?	-12%	8%	-7%	1%	35%[activator]	-23%
RE007 growth inh	-14%	13%	3%	32µM*	1%	/	-2%	-1%	10%	/
Cruzain inh Det	/	/	/	-7.9%	/	-12%	/	-1.5%	-0.4%	-21%
SARS PLpro yeast	-1%	-4%	-6%	-38%	-8%	/	2%	-16%	0%	/
Cruzain noTriton	/	/	/	6%	/	?	/	5%	?	-2%
Marburg entry inh	/	?	/	?	/	?	-1%	3%	24%	/

11: COCCCNc1nc2nonc2nc1NCCSC
12: COc1ccccc1C(=O)Nc1ccc2c(c1)nc1n2CCSC1
13: Cc1cccc(C(=O)NC2(C(F)(F)F)N=C(c3ccccc3)N(Cc3ccccc3)C2=O)c1 (stereo not given)
14: O=C(CNc1cc(S(=O)(=O)N2CCOCC2)ccc1NCC1CCCO1)Nc1ccc(F)c(F)c1 (stereo not given)
15: COc1ccccc1NC(=O)CC1C(=O)Nc2ccccc2N1C(=O)c1ccccc1 (stereo not given)
16: O=C1c2ccccc2S(=O)(=O)N1Cc1cccc(S(=O)(=O)N2CCOCC2)c1
17: CCN(CC)C(=O)Cn1c(=O)n(Cc2ccc(C(=O)NCCc3ccc(OC)c(OC)c3)cc2)c(=O)c2ccccc21
18: C/C(=N\NC(=O)c1nc2ccccn2c1C)c1cc2ccccc2o1
19: CS(=O)(=O)N(CCc1ccccc1)CC(=O)NCC1CCCO1 (stereo not given)
20: CCOC(=O)C1=C(CS(=O)(=O)c2ccc(F)c(C)c2)NC(=O)NC1c1ccccc1OC (stereo not given)
Assay by compound	11	12	13	14	15	16	17	18	19	20
NS1 function inh	2%	3%	/	16%	/	-9%	/	-1%	-24%	/
Lassa entry inh	/	?	15%[46.1 µM]	7%	-16%	-12%	27%[46.1 µM]	-11%	-12%	-8%[46.1 µM]
StopGo reporter	-18%	25%	-11%	12%	4%	?	-4%	3%	-1%	-13%
RE007 growth inh	-11%	-7%	/	6%	4%	4%	/	2%	5%	/
Cruzain inh Det	/	-6.4%	-4.6%	/	/	0.3%	-0.5%	/	4.9%	-3.5%
SARS PLpro yeast	-1%	-17%	/	4%	-2%	6%	/	-1%	1%	/
Cruzain noTriton	/	-13%	17%	/	/	2%	-11%	/	10%	7%
Marburg entry inh	/	?	-28%[46.1 µM]	3%	?	-2%	?	?	7%	-1%[46.1 µM]

Given field by field: part of the list above.
[11] COCCCNc1nc2nonc2nc1NCCSC
  NS1 function inh: 2%
  Lassa entry inh: /
  StopGo reporter: -18%
  RE007 growth inh: -11%
  Cruzain inh Det: /
  SARS PLpro yeast: -1%
  Cruzain noTriton: /
  Marburg entry inh: /
[12] COc1ccccc1C(=O)Nc1ccc2c(c1)nc1n2CCSC1
  NS1 function inh: 3%
  Lassa entry inh: ?
  StopGo reporter: 25%
  RE007 growth inh: -7%
  Cruzain inh Det: -6.4%
  SARS PLpro yeast: -17%
  Cruzain noTriton: -13%
  Marburg entry inh: ?
[13] Cc1cccc(C(=O)NC2(C(F)(F)F)N=C(c3ccccc3)N(Cc3ccccc3)C2=O)c1 (stereo not given)
  NS1 function inh: /
  Lassa entry inh: 15%[46.1 µM]
  StopGo reporter: -11%
  RE007 growth inh: /
  Cruzain inh Det: -4.6%
  SARS PLpro yeast: /
  Cruzain noTriton: 17%
  Marburg entry inh: -28%[46.1 µM]
[14] O=C(CNc1cc(S(=O)(=O)N2CCOCC2)ccc1NCC1CCCO1)Nc1ccc(F)c(F)c1 (stereo not given)
  NS1 function inh: 16%
  Lassa entry inh: 7%
  StopGo reporter: 12%
  RE007 growth inh: 6%
  Cruzain inh Det: /
  SARS PLpro yeast: 4%
  Cruzain noTriton: /
  Marburg entry inh: 3%

Next section.
21: Cc1ccc(NC(=O)COC(=O)C2CC(=O)N(Cc3ccccc3)C2)cc1S(=O)(=O)N(C)C (stereo not given)
22: O=C(CSc1ccc2nnc(-c3ccncc3)n2n1)NCc1ccco1
23: O=C1C=CC(=O)N1Cc1ccccc1
24: COc1cc(C(=O)NCC(=O)OCC(=O)Nc2nnc(-c3ccccc3)o2)cc(OC)c1OC
25: O=C(CCC(=O)N1CCN(c2cccc(Cl)c2)CC1)c1cccs1
26: O=C(c1ccc(NS(=O)(=O)c2ccc(F)cc2)cc1)N1CCC1
27: Cc1ccc(OCCCCN2CCC(C)CC2)c(Br)c1
28: CSCCCNC(=O)c1ccc(OC2CCN(C(=O)c3cccnc3)CC2)cc1
29: O=C(OCc1cc(=O)n2c3c(sc2n1)CCCC3)c1cccc(NC(=O)c2ccccc2F)c1
30: CCC(C)NC(=O)c1ccc(CS(=O)(=O)c2ccc(OC)cc2)o1 (stereo not given)
Assay by compound	21	22	23	24	25	26	27	28	29	30
NS1 function inh	-7%	-14%	-143%	/	/	/	-33%	-2%	/	-2%
Lassa entry inh	-1%	/	/	4%	-7%	1%	?	/	?	/
StopGo reporter	59%[activator]	-18%	?	-18%	9%	7%	-10%	?	-2%	-26%
RE007 growth inh	-3%	3%	?	2%	-1%	7%	4%	11%	/	-12%
Cruzain inh Det	/	0.4%	/	/	/	/	1.3%	/	0.7%	1.1%
SARS PLpro yeast	-3%	14%	-40%	/	-4%	-1%	-11%	3%	/	-1%
Cruzain noTriton	/	-8%	/	/	/	/	2%	/	-4%	-2%
Marburg entry inh	-13%[46.1 µM]	/	/	-15%	?	0%	15µM*	/	/	3%

31: Cc1ccc(CSc2nccc(-c3c(C)nc4ccccn34)n2)cc1
32: O=c1[nH]c(C2CCN(S(=O)(=O)c3ccccc3F)CC2)nc2c1nnn2Cc1ccc(OC(F)(F)F)cc1
33: COc1cc(NC(=O)c2cc([N+](=O)[O-])ccc2Br)ccc1NC(=O)c1ccco1
34: Cc1ccc(S(=O)(=O)Oc2cccc([N+](=O)[O-])c2)cc1
35: CCNc1cc(S(=O)(=O)C(F)(F)F)ccc1N
36: CCc1ccc(NC(=O)Cn2nnc(C(=O)NCCc3ccc(OC)c(OC)c3)c2N)cc1
Assay by compound	31	32	33	34	35	36
NS1 function inh	0%	11%	20%	/	11%	2%
Lassa entry inh	/	/	?	0%[46.1 µM]	10%	/
StopGo reporter	?	-11%	?	12%	0%	-9%
RE007 growth inh	3%	4%	11%	9%	/	-6%
Cruzain inh Det	/	/	-3.7%	/	-6.7%	/
SARS PLpro yeast	-1%	10%	-8%	/	-6%	2%
Cruzain noTriton	/	/	-19%	/	-27%	/
Marburg entry inh	/	/	?	?	0%	/

Full records from above.
Record of O=C(CCC(=O)N1CCN(c2cccc(Cl)c2)CC1)c1cccs1 : NS1 function inh = /; Lassa entry inh = -7%; StopGo reporter = 9%; RE007 growth inh = -1%; Cruzain inh Det = /; SARS PLpro yeast = -4%; Cruzain noTriton = /; Marburg entry inh = ?
Record of CCN(CC)C(=O)Cn1c(=O)n(Cc2ccc(C(=O)NCCc3ccc(OC)c(OC)c3)cc2)c(=O)c2ccccc21 : NS1 function inh = /; Lassa entry inh = 27%[46.1 µM]; StopGo reporter = -4%; RE007 growth inh = /; Cruzain inh Det = -0.5%; SARS PLpro yeast = /; Cruzain noTriton = -11%; Marburg entry inh = ?

Assay outcomes from PubChem BioAssay.
